Screening data from PubChem BioAssay.
Mtb MenB inh – M. tuberculosis MenB inhibitors, primary screen, biochemical, absorbance; 1,4-dihydroxy-2-naphthoyl-CoA synthase (Mycobacterium tuberculosis (strain ATCC 25618 / …; MenB enzyme assay, absorbance read-out; some hits fall short of the stated cut; inhibition, %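 (about 12 µg/mL by stock and volumes)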; 100,000 tested, 0.43% active; AID 540299, 2011;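 active = mean of two replicates above 30%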;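 note: 0% = no compound and 100% = wells with inactive enzyme; the first replicate is given; strong numbers were not always called active; inactives centre near -10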
MbtI inh – MbtI salicylate synthase inhibitors, primary screen, biochemical, fluorescence intensity; 100,000 tested, 0.89% active; inhibition, %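 (about 17 µg/mL by stock and volumes)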; P9WFX0; purified MbtI enzyme, fluorescence intensity read-out; AID 493033, 2011;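 active = above 50% in both replicates, above 80% if mildly self-fluorescent; inactive = the rest, strongly fluorescent compounds included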;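 note: 0% = mean of negative and 100% = mean of positive controls; one replicate is shown; some compounds called inactive have numbers as strong as hits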
Target sequence (P9WFX0 whole entry, looked up): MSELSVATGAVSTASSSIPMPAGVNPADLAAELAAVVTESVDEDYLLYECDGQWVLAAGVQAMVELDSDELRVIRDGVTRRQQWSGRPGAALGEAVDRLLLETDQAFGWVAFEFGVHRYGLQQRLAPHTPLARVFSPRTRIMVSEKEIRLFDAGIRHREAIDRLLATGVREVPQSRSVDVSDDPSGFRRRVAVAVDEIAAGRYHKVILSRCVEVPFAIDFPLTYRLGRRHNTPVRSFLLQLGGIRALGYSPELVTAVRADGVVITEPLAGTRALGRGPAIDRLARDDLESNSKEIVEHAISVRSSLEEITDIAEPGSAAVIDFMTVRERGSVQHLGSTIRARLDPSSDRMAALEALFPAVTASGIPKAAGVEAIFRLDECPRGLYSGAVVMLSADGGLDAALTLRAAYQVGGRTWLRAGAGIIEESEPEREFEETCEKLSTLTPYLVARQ
Polio RdRp inh – poliovirus RdRp elongation inhibitors, primary screen, biochemical, fluorescence polarization, total intensity. poliovirus polymerase elongation; stronger effect = lower value. % elongation, % (compound at 16.7 µg/mL). 150,000 tested, 0.66% active; in the data active = % elongation below about 90%; note: some results filed as inactive read as strong as hits
Target sequence (P03300 1749-2209 limits assumed): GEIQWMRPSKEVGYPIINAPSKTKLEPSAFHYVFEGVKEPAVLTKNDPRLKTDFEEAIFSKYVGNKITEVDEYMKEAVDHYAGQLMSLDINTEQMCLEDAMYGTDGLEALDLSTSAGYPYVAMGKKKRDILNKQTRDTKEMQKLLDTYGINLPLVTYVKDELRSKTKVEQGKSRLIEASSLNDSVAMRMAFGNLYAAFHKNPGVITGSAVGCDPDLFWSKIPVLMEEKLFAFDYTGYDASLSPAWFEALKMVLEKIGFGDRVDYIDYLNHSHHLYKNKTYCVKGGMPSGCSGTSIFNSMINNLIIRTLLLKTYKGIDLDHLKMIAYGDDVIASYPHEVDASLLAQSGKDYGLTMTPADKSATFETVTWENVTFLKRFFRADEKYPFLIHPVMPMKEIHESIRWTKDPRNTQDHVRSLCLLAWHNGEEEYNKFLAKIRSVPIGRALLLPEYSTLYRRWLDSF
Polio RdRp inh intensity – recorded beside Polio RdRp inh, whose call it bears; % elongation; measured here: total intensity read-out; formula for this scale not given here;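 total fluorescence in place of polarization; lower means less elongation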
The depositor's hits bear a star; i = inactive; · = not tested or not shown; & = joins results of further samples.

Compound	Polio RdRp inh	Polio RdRp inh intensity	Mtb MenB inh	MbtI inh
COC(=O)C1CCCNC1=O (configuration not stated)	99	97	-5	·
CCOC(=O)C1CCN(C(=O)C(C)OC(=O)c2ccccc2O)CC1 (configuration not stated)	105	104	2	-19
CCc1c(C)[nH]c(=S)c(C#N)c1C	104	101	-16	·
COC(=O)c1ccc2c(=O)[nH]c(COC(=O)c3ccccc3OCc3c(C)noc3C)nc2c1	100	102	-4	-14
CCCN1C(=O)c2ccccc2CC1(C)C(=O)NC1CCCCCC1 (configuration not stated)	103	103	-6	-2
O=C(CSc1nc2ccccc2s1)OCC(=O)c1ccc[nH]1	·	·	-36	-2
COc1ccc(CC2C(=O)NC(=O)N(c3cccc(Cl)c3)C2=O)cc1 (configuration not stated)	102	93	-12	·
C/C(=N\N=C(/N)SCc1cc(F)cc2c1OCOC2)c1ccc(C)nc1	101	96	8	6
NC(=O)CC(NC(=O)c1ccccc1)C(=O)O (configuration not stated)	100	99	·	-10
CS/C(=C(/C#N)S(=O)(=O)C(C)C)N1CCCCC1	105	106	-21	13
N#C/C(=C\C=C\c1ccco1)C(=O)Nc1cccc(Br)c1	120	132	-48	-2
c1coc(CSCCNc2nc(-c3cccs3)nc3ccccc23)c1	103	104	-5	i
CCOC(=O)c1cc(NC(=O)SCC(=O)O)c(C)nc1C	100	103	3	-8
CCOc1cc(C(=O)NC2=C(C(=O)OC)SCC2)cc(OCC)c1OCC	101	103	0	7
Cc1nc2cc(CCO)ccc2s1	102	99	6	1

Given with values under each structure: part of the list above.
Values run as follows: Polio RdRp inh	Polio RdRp inh intensity	Mtb MenB inh	MbtI inh
COC(=O)c1ccc2c(=O)[nH]c(COC(=O)c3ccccc3OCc3c(C)noc3C)nc2c1
  100	102	-4	-14
CCCN1C(=O)c2ccccc2CC1(C)C(=O)NC1CCCCCC1 (configuration not stated)
  103	103	-6	-2
O=C(CSc1nc2ccccc2s1)OCC(=O)c1ccc[nH]1
  ·	·	-36	-2

Next records follow.
Compound	Polio RdRp inh	Polio RdRp inh intensity	Mtb MenB inh	MbtI inh
COCCNC(=O)c1cc2c(s1)-c1ccsc1CC2	101	102	-6	118
CCOC(=O)c1nc(C)sc1-c1ccnn1S(=O)(=O)c1ccc(Cl)cc1Cl	106	105	-27	-3
FC(F)(F)c1ccc2ccccc2c1Cl	103	99	-15	3
Cc1noc(C)c1C(=O)OCC(=O)NC(c1ccccc1)c1ccccc1	102	102	-37	-2
O=C1CCCC(=O)C1C(c1ccc(-c2cc(C(F)(F)F)ccc2Cl)o1)C1C(=O)CCCC1=O	102	104	-20	99*
CN1C(=O)C(=Cc2cn(CC(=O)O)c3ccccc23)C(=O)N(C)C1=S	103	103	-43	75*
CC(=O)N(C)c1ccc(N=Nc2c(-c3ccccc3)[nH][nH]c2=O)cc1	99	95	-441	29
CCOC(=O)c1sc(=NC(=O)c2ccc(OCC)cc2)n(C)c1C	103	105	-5	-9
CC(=O)N/N=C(\C)CCc1ccccc1	100	99	-1	9
Cc1ccc2nc(-c3ccc(Cl)c(NC(=O)c4ccc5c(c4)OCCO5)c3)oc2c1	107&102	108&104	-32	53
CN(C)CC(C)(C)CNCc1ccc(-n2cnc3ccccc32)cc1	98	101	-12	-6
N#Cc1c(S/C=C(\O)c2ccccc2)nc2c(c1C(F)(F)F)CCCC2	114	180	-18	-6
CN(C)c1ccc(NC(=O)/C=C\C(=O)N2CCOCC2)cc1	102	99	-36	24
O=P1(O)C=C(c2ccccc2)OC(c2ccccc2)=C1	107	107	-15	-6
CCOC(=O)c1c(Nc2ccc(OC)c(Cl)c2)n[nH]c1C	98	99	-56	88*

The list continues:
Compound	Polio RdRp inh	Polio RdRp inh intensity	Mtb MenB inh	MbtI inh
O=c1n(CCSc2nnnn2-c2ccccc2)nnn1-c1ccccc1	101	94	-23	19
O=c1oc(-c2ccccc2Br)nc2sc3c(c12)CCC3	102	98	4	4
OCC#Cc1cnc2ccccc2c1	104	104	-30	-10
COC(=O)N/N=C/c1ccc2c(c1)OCO2	102	101	9	28
CCN(CC)c1ccc2cc(C(=O)Nc3ccc(NC(C)=O)cc3)c(=O)oc2c1	98	108	5	-10
COCCn1c(SCc2cc(=O)n3ccsc3n2)nnc1-c1ccncc1	102	110	-12	13
COc1ccc(C2C(C#N)=C(N)OC(C3CC3)=C2C#N)cc1 (configuration not stated)	104	100	-5	-21
CCC(Sc1nc2cc(OC)c(OC)cc2c2nc(-c3ccccc3)nn12)C(=O)NCc1ccco1 (configuration not stated)	100	104	9	80
O=S(=O)(NCc1nc(-c2ccccc2)no1)c1ccccc1	100	99	-10	-6
COc1ccc(NC(=O)C(C)n2sc3ccccc3c2=O)cc1 (configuration not stated)	102	98	-22	3
CCCCN=C1SCC(c2c[nH]c3ccccc23)=NN1C	108	121	6	-3
CCCS(=O)(=O)N1CCCC(C(=O)NC(C)C)C1 (configuration not stated)	102	103	0	-34
CCc1ccccc1S(=O)(=O)Cc1ccc(C(=O)NCc2cccs2)o1	101	101	-16	8
NC(=O)c1ccccc1N/C=C/C(=O)c1ccccc1	102	103	-224	-60
Cc1ccccc1CCN	106	106	12	-1

Among those listed so far, four have a thiophene ring, fused or not.
Compound	Polio RdRp inh	Polio RdRp inh intensity	Mtb MenB inh	MbtI inh
c1coc(CSCCNc2nc(-c3cccs3)nc3ccccc23)c1	103	104	-5	i
COCCNC(=O)c1cc2c(s1)-c1ccsc1CC2	101	102	-6	118
O=c1oc(-c2ccccc2Br)nc2sc3c(c12)CCC3	102	98	4	4
CCc1ccccc1S(=O)(=O)Cc1ccc(C(=O)NCc2cccs2)o1	101	101	-16	8

Following part:
Compound	Polio RdRp inh	Polio RdRp inh intensity	Mtb MenB inh	MbtI inh
CCOc1ccccc1C(=O)NCc1cn2ccccc2n1	102	99	-15	9
Cc1ccc(C)c(S(=O)(=O)n2ccc(C)n2)c1	101	100	13	4
CCc1ccc(NC(=O)Nc2ccccc2)cc1	100	103	-3	0
CC(C)CC(=O)Nc1ccc(C(=O)COC(=O)c2ccc(-n3cnnn3)cc2)cc1	113	111	-4	1
CN(CCNC(=O)Cn1ncc2c3ccccc3n(C)c2c1=O)C1CCCCC1	104	99	-26	40
O=C(Nc1cccc2ncccc12)C1CC(=O)N(Cc2ccco2)C1 (configuration not stated)	99	107	-14	-13
Cc1ccccc1N=C1SCCN1C(=O)c1ccc2c(c1)OCCO2	101	107	-2	-33
COc1ccc(N2COc3ccc(OC)cc3C2)cc1	99	105	-4	2
Cc1ccc2c(c1)c1c3n2CCN(C(=O)Cn2c(-c4ccccc4)noc2=O)C3CCC1 (configuration not stated)	105	100	-77	-4
CCC(c1nnnn1CCOC)N1CCN(c2nc3ccccc3s2)CC1 (configuration not stated)	101	101	22	-1
Fc1ccc(C=Nc2ccc(I)cc2)cc1	100	97	9	·
c1ccc(-c2noc(C34CC5CC(CC(C5)C3)C4)n2)cc1	98	101	-16	1
Cc1ccc(C(=O)Oc2cc(C)nn2Cc2ccccc2)cc1	101	105	·	-7
O=C(CCN1C(=O)COc2ccccc21)Nc1ccc2c(c1)OCCCO2	101	90	-24	-8
O=C(OCc1nc2scc(-c3ccccc3)c2c(=O)[nH]1)c1cccc(-n2cnnn2)c1	·	·	-18	7

Further results.
Compound	Polio RdRp inh	Polio RdRp inh intensity	Mtb MenB inh	MbtI inh
COC(=O)/C(=C\N(C)C)S(=O)(=O)c1cc(C)c(Cl)cc1C	99	99	12	11
COc1ccc(CN(Cc2nc3ccccc3c(=O)[nH]2)C(=O)NCc2ccccc2)cc1	105	102	-41	6
COC(=O)c1c(NC(=O)c2nc3ccccc3s2)sc2c1CCN(C(C)=O)C2	103	101	-19	-11
O=C(CSc1nc2ccccc2c(=O)n1CCCO)c1ccc2c(c1)OCO2	103	109	-3	-2
COc1ccc(CCNC(=O)C(c2ccccc2)c2ccccc2)cc1OC	104	109	-4	·
CCN(CC)CCN1C2=C(C(=O)CC(C)(C)C2)C(c2cccc(F)c2)C2=C1CC(C)(C)CC2=O	101	99	-33	-4
Cc1nnc(SCc2cc(=O)oc3cc(O)ccc23)n1Cc1ccccc1	99	96	-25	5
CCN(CC)S(=O)(=O)c1ccc(C(=O)N2CCN(C3=NS(=O)(=O)c4ccccc43)CC2)cc1	101	102	-23	-9
CCn1c(-c2ccccc2)ccc1C(O)C(F)(F)F (configuration not stated)	102	95	2	·
Cc1c2cnn(CC(=O)NC3CCCc4ccccc43)c(=O)c2c(C)n1Cc1ccc(Cl)cc1 (configuration not stated)	101	103	-9	-1
O=c1c2c3c(sc2nc2n1CCCCC2)/C(=N/O)CCC3	102	102	0	12
O=C1CCCN1CCP(=O)(O)CN1CCCCC1	103	106	-4	·
N#Cc1c(N)n(CCNS(=O)(=O)c2ccccc2)c2nc3ccccc3nc12	45	247	-65	100
N#C/C(=C\N1CCCCC1)S(=O)(=O)c1ccc(Cl)cc1	108	109	-3	-7
COc1ccc2[nH]cc(CCNC(C)=O)c2c1	101&98	102&100	4&-6	-42&-32

Next records follow:
Compound	Polio RdRp inh	Polio RdRp inh intensity	Mtb MenB inh	MbtI inh
CCOc1ccc2c(c1)sc(N)[n+]2Cc1cc(C)cc2cccnc12	102	104	·	-16
COC(=O)c1cc(S(=O)(=O)N2CC(C)CC(C)C2)c[nH]1 (configuration not stated)	102	101	12	20
COCc1cc(=O)[nH]c(SCC(=O)C(C)(C)C)n1	110	112	-12	-5
COc1ccccc1C(=O)NCCN1CCCC1	103	102	-10	2
O=C1C=C(N2CCOCC2)C(=O)c2ccccc21	97	89	-5	3
O=C1CC(c2ccccc2Cl)NC(=O)N1 (configuration not stated)	102	105	-15	-4
CC(=O)Nc1nc2ccc(S(=O)(=O)N3CCOCC3)cc2s1	101	102	-3	-21
O=C(Cn1ncc(Cl)c(Cl)c1=O)N1CCCC1c1ccc2c(c1)OCCCO2 (configuration not stated)	102	104	-10	-7
Cc1c(C(=O)N2CCN(c3ccccc3)CC2)oc2c1C(=O)CCC2	104	102	-33	-10
Cc1cccc(NC(=O)CSc2nncc(=O)[nH]2)c1	100	107	-11	58*
COc1ccc(C2CCCCCN2C(=O)c2cccc(N3CCCC3=O)c2)cc1 (configuration not stated)	97	86	-17	15
Cc1ccc(C(O)CN)cn1 (configuration not stated)	106	108	·	-3
COCc1cc(C)nc2sc3c(=O)n(-c4ccccc4)nnc3c12	102	102	-2	·
O=C1C(=Cc2ccc(N3CCCC3)cc2)C(=O)c2ccccc21	77	180	-95	5
COc1cc2c(C#N)c(N3CCCCC3)nc(N)c2c(N)n1	123	160	-8	95
COc1ccccc1NC(=O)CN(Cc1ccco1)C(=O)c1ccc(Cl)nc1	·	·	-35	-4
O=C(NCCCc1ccccc1)Nc1c[nH]c2ccccc2c1=O	105	102	-22	89

Molecules shown so far containing two or more sulfur atoms:
Compound	Polio RdRp inh	Polio RdRp inh intensity	Mtb MenB inh	MbtI inh
O=C(CSc1nc2ccccc2s1)OCC(=O)c1ccc[nH]1	·	·	-36	-2
CS/C(=C(/C#N)S(=O)(=O)C(C)C)N1CCCCC1	105	106	-21	13
c1coc(CSCCNc2nc(-c3cccs3)nc3ccccc23)c1	103	104	-5	i
COCCNC(=O)c1cc2c(s1)-c1ccsc1CC2	101	102	-6	118
CCOC(=O)c1nc(C)sc1-c1ccnn1S(=O)(=O)c1ccc(Cl)cc1Cl	106	105	-27	-3
COCCn1c(SCc2cc(=O)n3ccsc3n2)nnc1-c1ccncc1	102	110	-12	13
CCc1ccccc1S(=O)(=O)Cc1ccc(C(=O)NCc2cccs2)o1	101	101	-16	8
COC(=O)c1c(NC(=O)c2nc3ccccc3s2)sc2c1CCN(C(C)=O)C2	103	101	-19	-11
CCN(CC)S(=O)(=O)c1ccc(C(=O)N2CCN(C3=NS(=O)(=O)c4ccccc43)CC2)cc1	101	102	-23	-9
CC(=O)Nc1nc2ccc(S(=O)(=O)N3CCOCC3)cc2s1	101	102	-3	-21
